Assay outcomes: PubChem BioAssay, ICCB-Longwood Screening Facility, Harvard Medical School
Ba CapD inh – blocks the Bacillus anthracis CapD enzyme; purified CapD enzyme, fluorescence intensity read-out; stronger effect = lower value; some hits fall short of the stated cut; z-score (test concentration not listed); actives 0.23% (n = 140,000); AID 492967;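 active = z-score under -4 in either of two replicates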;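 also: stock transfer was 100 nL into about 40 µL; score is relative to mean and spread of the plate; one replicate is shown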
AID504770 – E. coli YBA685 growth inhibition, screen for V. cholerae RctB inhibitors. E. coli YBA685 rctB-dependent plasmid, OD600 growth, 3 h; stronger effect = lower value. z-score (concentration not given with the values). actives 0.27% (n = 130,000). AID 504770;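 active = z-score under -2 on both plates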;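 also: wells of about 30 µL received 100 nL stock; score is relative to mean and SD of the test wells; the first replicate is given; strong numbers were not always called active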
* marks the source's active call; other numbers are inactive results; nt = no result given. This is a subset; count on the stated rates, not on these rows.

entry | mol | Ba CapD inh | AID504770
1 | O=C(COC(=O)Cc1cccc(C(F)(F)F)c1)NC1CC1 | -0.83 | -0.8
2 | O=C1CSC(c2ccncc2)N1CC1CC1 (centres undefined) | 0.82 | -0.5
3 | Cc1ccc(S(=O)(=O)NC(CC(C)C)C(=O)N2CCC(C)CC2)cc1 (centres undefined) | nt | 0.85
4 | C=C[C@H]1CN2CCC1C[C@@H]2[C@@H](O)c1ccnc2ccccc12 (some centres undefined) | -0.87 | nt
5 | Cn1c(SCc2ccccc2)nnc1C1CCN(C(=O)Nc2ccccc2)CC1 | nt | -0.15
6 | Cc1cc(=O)oc2c1c(C)nn2-c1ccccc1 | 1.6 | nt
7 | CSc1ccc(CN(C)C(=O)Cn2[nH]c(=O)c3ccccc3c2=O)cc1 | nt | 0.55
8 | Cc1ccccc1N1C(=O)/C(=C/c2ccc(-c3ccc([N+](=O)[O-])cc3)o2)C=C1c1ccccc1 | -1.3 | nt
9 | COc1ccc(N(CC(=O)NCCc2ccc(OC)c(OC)c2)S(=O)(=O)c2ccccc2)c(OC)c1 | -0.71 | nt
10 | COCCNC(=O)CCC(=O)N(C1CC1)C1CCN(Cc2ccccc2)CC1 | -0.28 | nt
11 | CN1CCCCC1c1cccnc1N (centres undefined) | 2.2 | 0.1
12 | Cc1nn(-c2ccc(F)cc2)c(-n2cccc2)c1C(=O)N1CCCCC1 | -1.6 | 2.8
13 | S=C(NCc1ccco1)NCC1CC(c2ccccc2)=NO1 (centres undefined) | 0.66 | -0.4
14 | COc1ccccc1CNC(=O)c1ccc2c(c1)nc(C)n2-c1cc(OC)c(OC)c(OC)c1 | -0.14 | nt
15 | CC(C)(CNC(=O)c1cc2ccccc2o1)N1CCOCC1 | nt | -0.4
16 | O=C(NCCCN1CCCCC1)c1oc(=O)c2ccccc2c1-c1ccccc1 | -0.18 | 0.15
17 | Cn1/c(=N/NC(=O)c2ccccc2)sc2ccccc21 | nt | -0.45
18 | Nc1nccnc1C(=O)Oc1ccccc1 | 74 | -1.1
19 | Cc1cc2cc(NS(=O)(=O)c3ccccc3)ccc2[nH]1 | -0.23 | nt
20 | O=C(CN1C(=O)CC(c2ccccc2)S(=O)(=O)c2ccccc21)Nc1ccccc1C(F)(F)F (centres undefined) | 16 | -0.35
21 | O=C(Nc1ccc(Cl)cc1)c1cccn(Cc2cccc(Cl)c2)c1=O | 0.53 | nt
22 | Cc1coc2cc3oc(=O)c(CCC(=O)NCc4ccccc4)c(C)c3cc12 | 3.9 | -0.45
23 | O=S(=O)(c1cc(Br)c(Br)s1)N1CCCCC1 | 0.21 | nt
24 | CC1(C)CC(=O)C2=C(C1)OC(N)=C(C#N)C2c1cn(Cc2cccc(F)c2)c2ccccc12 (centres undefined) | nt | 1.9
25 | CCc1cccc(-n2c(=O)c3cccnc3n2CC(=O)Nc2ccccc2OC)c1 | 24 | 0.55
26 | CCc1ccc(C=Nc2ccc(O)cc2)s1 | -1.4 | -0.75
27 | Cc1cccc(-n2c(=O)c3c4c(sc3n3c(=S)[nH]nc23)CCC4)c1 | 1 | 0.1
28 | CC(C)c1ccc(NC(=O)C(c2ccc3c(c2)OCO3)N2CCC3(CC2)OCCO3)cc1 (centres undefined) | 0 | 0.05
29 | O=C(COc1ccccc1)N/N=C/c1cc2ccccc2o1 | 2.8 | nt
30 | Cc1ccc(-c2cc(=O)c3ccc4ccccc4c3o2)cc1 | 0.47 | -0.8
31 | CCN(C(=O)c1ccc(OC(C)=O)cc1)c1ccccc1C | -0.32 | -0.55
32 | O=C1CCC(c2cccs2)=NN1CO | -2.4 | 1.8
33 | O=C(Cn1nc(-c2nccc3ccccc23)oc1=O)N1CCCc2ccccc21 | nt | -0.75
34 | CCOC(=O)N1CCN(C(=O)Cn2cnc3c(cnn3-c3ccc(C)cc3C)c2=O)CC1 | nt | -1.1
35 | O=C1C(=O)N(c2ccc(O)cc2)C(c2ccccc2F)/C1=C(/O)c1ccccc1 (centres undefined) | -0.42 | nt
36 | Cc1c(Br)c(C(F)(F)F)nn1CC(=O)Nc1ccc(Oc2cc([N+](=O)[O-])cc([N+](=O)[O-])c2)cc1 | -0.16 | nt
37 | Cc1cccc(S(=O)(=O)NCc2ccco2)c1 | -0.01 | -0.2
38 | CC(=O)N[C@@H](Cc1c[nH]c2ccccc12)C(=O)N1CCC(C)CC1 | nt | -0.55
39 | CC1CC(=O)N(N(C)C)C(C#N)(C#N)C1(C#N)C#N (centres undefined) | 0.22 | -0.9
40 | O=C(CSc1cn(Cc2ccccc2)c2ccccc12)Nc1nccs1 | nt | -0.25
41 | CC(=O)Oc1cccnc1I | -0.29 | -0.4
42 | CCN(Cc1ccccc1)Cc1cc(Cl)ccc1O | -0.12 | 2.1
43 | COc1ccc(/C=C(\NC(=O)c2ccccc2)C(=O)NCc2ccco2)cc1 | 0.055 | nt
44 | CN(C)c1ccc(C2C3C=CC(C3)C2(C#N)C(=O)O)c(Br)c1 (centres undefined) | 0.095 | -0.05
45 | CCOCCn1cnc2sc(C(=O)N3CCCC(C(=O)OCC)C3)c(C)c2c1=O (centres undefined) | 6.2 | nt
46 | O=S(=O)(NCC(O)c1ccccc1)c1ccccc1 (centres undefined) | 0.41 | -0.85
47 | COc1ccccc1Nc1nn(-c2ccccc2)c2c1C(=O)CCC2 | -0.51 | -0.65
48 | CCn1c(C)c(C2=CCN(S(=O)(=O)c3ccccc3)CC2)c2ccccc21 | 4.7 | -0.3
49 | CCOC(=O)C1=C(C)N=c2s/c(=C\c3ccc(Br)o3)c(=O)n2C1c1ccc(OC)cc1OC (centres undefined) | 0.16 | nt
50 | COCCNc1nc(SCc2cc(=O)n3cc(Cl)ccc3n2)nc2ccccc12 | 1.2 | nt
51 | Cc1c2c(=O)n(-c3nc4ccccc4s3)nc-2cc(O)n1Cc1ccccc1 | -2.1 | 2.9
52 | COc1ccc(S(=O)(=O)N(CC(=O)N2CCN(c3ccccc3)CC2)c2ccc(Cl)cc2)cc1 | -0.43 | nt
53 | COC(=O)CNC(=O)c1ccccc1 | 0.05 | -0.7
54 | Cc1nc(Nc2nc(-c3ccccc3)cc(=O)[nH]2)nc2c(C)cccc12 | -0.1 | nt
55 | O=C(CSCc1cccc(Br)c1)N/N=C/c1ccco1 | -0.29 | -0.9
56 | O=C(c1ccc(Cl)cc1)C1CCN(C(=O)OCCc2ccc(Br)cc2)CC1 | -0.76 | nt

Carrying on.
entry | mol | Ba CapD inh | AID504770
57 | O=C(CN1CCOCC1)N1CCc2ccccc21 | -0.42 | -0.75
58 | COc1ccc(-c2cc(C(F)(F)F)n3nc(C(=O)NCCCN4CCOCC4)cc3n2)cc1 | 9.4 | nt
59 | CC12CC(c3ccccc3O1)C(C#N)C(=O)N2 (centres undefined) | -0.61 | nt
60 | O=C(CSc1nnc2ccccn12)Nc1ccc(N2CCCCC2)cc1 | nt | 0.25
61 | Cc1c(C(=O)OC2CCOC2=O)oc2c1ccc1ccccc12 (centres undefined) | nt | 0.8
62 | Cc1ccc(NC(=S)NCc2cccnc2)cc1 | -0.075 | nt
63 | Fc1ccc(N2CCN(Cc3ccnc(Cl)c3)CC2)cc1 | -0.44 | nt
64 | CCOC(=O)c1c([N+](=O)[O-])c(C)[nH]c(=O)c1C#N | -0.085 | nt
65 | O=C(c1cccs1)c1coc2ccc(O)c(CN3CCCCC3)c12 | -0.16 | 2.1
66 | CN(C)S(=O)(=O)N(CC(N)=O)c1ccccc1 | 0.03 | -1.1
67 | CC(C(=O)Nc1ccc(S(=O)(=O)Nc2ncccn2)cc1)N1C(=O)c2ccccc2C1=O (centres undefined) | -0.26 | -0.1
68 | CSc1ccccc1NS(=O)(=O)c1ccccc1C(F)(F)F | nt | 0.1
69 | O=C(COc1ccc(-c2ccccc2)cc1)NC1CCOC1=O (centres undefined) | nt | 0.5
70 | O=C(Nc1cc(C(F)(F)F)cc(C(F)(F)F)c1)C(Sc1ccc(Cl)cc1)c1ccccc1 (centres undefined) | -0.37 | nt
71 | Cc1ccccc1N1C(=O)c2ccc(C(=O)OCc3nnc(-c4cccs4)o3)cc2C1=O | nt | 0.05
72 | CCn1c(=O)c2ccccc2n(CC(=O)NCCc2ccc(OC)c(OC)c2)c1=O | nt | 2.2

An excerpt of these results, as labelled records.
#65 O=C(c1cccs1)c1coc2ccc(O)c(CN3CCCCC3)c12
  Ba CapD inh = -0.16; AID504770 = 2.1
#66 CN(C)S(=O)(=O)N(CC(N)=O)c1ccccc1
  Ba CapD inh = 0.03; AID504770 = -1.1
#67 CC(C(=O)Nc1ccc(S(=O)(=O)Nc2ncccn2)cc1)N1C(=O)c2ccccc2C1=O (centres undefined)
  Ba CapD inh = -0.26; AID504770 = -0.1

Following part:
entry | mol | Ba CapD inh | AID504770
73 | Cc1c(Cl)c(C)c(C2=NON3N(C(=O)C(C)C)c4ccccc4N23)c(C)c1Cl | 0.42 | nt
74 | COc1ccc(NC2SC(=O)N(Cc3ccccc3)C2=O)cc1 (centres undefined) | 2.4 | -0.35
75 | CC(=O)N1N=C(N)SC1(C)c1ccccc1 (centres undefined) | nt | -0.65
76 | O=C(NC1CCCCCC1)C1CCN(C(=O)Cc2ccccc2)CC1 | -0.35 | -0.85
77 | Cc1cc(/C=C2\N=COC2=O)ccc1C(F)(F)F | -0.24 | -0.75
78 | Cc1ccc(S(=O)(=O)Nc2ccc3nc(C)sc3c2)cc1 | nt | -0.05
79 | Cc1ccccc1NC(=O)c1cc2c(C)nc3ccccc3c2o1 | -0.39 | -1.2
80 | O=C(O)CCC(=O)N1N=C(c2c(-c3ccccc3)c3cc(Cl)ccc3[nH]c2=O)CC1c1ccccc1F (centres undefined) | 1.8 | nt
81 | CCN(CC)C(=O)c1ccc(C(C)(C)C)s1 | 0.42 | 0.65
82 | COc1ccc2c(c1OC)C(=O)OC2O (centres undefined) | 0.35 | nt
83 | CC(=O)Nc1ccc(OCC(=O)N(CC(C)C)C2CCS(=O)(=O)C2)cc1 (centres undefined) | nt | 1.8
84 | COc1ccc(NC(=O)Cn2cc(C(=O)c3cccs3)c3ccccc32)cc1 | -0.13 | 0.45
85 | O=C1N[C@H](Cc2ccccc2)C(=O)N2CCC[C@@H]12 | nt | -0.7
86 | CCCCn1nnnc1COC(=O)c1sc2cc(Cl)ccc2c1Cl | nt | 0.55
87 | CCC1(C)Cc2c(C#N)c(N)n(N)c(=S)c2CO1 (centres undefined) | 0.74 | -0.6
88 | O=c1sn(-c2ccc(F)c(Cl)c2)c(=O)n1C1Cc2ccccc2C1 | 0.25 | -3.3*
89 | Cc1ccsc1C(=O)OCC(=O)N1C(C)CCCC1C (centres undefined) | nt | -0.2
90 | CC(C)NC(=O)CCC1CCCCC1 | nt | -1.2
91 | O=C(Oc1cccc(Nc2ncnc3ccccc23)c1)c1cccnc1 | 0.46 | -0.6
92 | Cc1[nH][nH]c(=O)c1C(c1cccc(Cl)c1)C(C#N)C#N (centres undefined) | nt | -0.35
93 | NC(=O)C1CC(=O)N(c2ccc(OCC(=O)N3CCCC3)cc2)C1 (centres undefined) | nt | -0.2
94 | COc1ccc2c(c1)c(C(=O)OCCN(C)C)c(C)n2C | -0.19 | -0.35
95 | COc1ccc(/C(O)=C/c2nc3ccc(C(=O)N4CCN(c5cccc(C)c5C)CC4)cc3[nH]c2=O)cc1 | -0.17 | 2.7
96 | CN1C(=O)C(=Cc2ccccc2OCc2ccccc2)C(=O)N(C)C1=S | -0.22 | 2.1
97 | COc1ccccc1N1CCN(C(=O)c2cc(-c3ccc(C)s3)nc3ccccc23)CC1 | 21 | nt
98 | C=CCn1c(SCC(=O)NCCN2CCOCC2)nc2sc3c(c2c1=O)CCCC3 | -0.65 | nt
99 | CCN(CC)C(=O)C1CC(c2ccc(OC)cc2)=NO1 (centres undefined) | -0.8 | -0.65
100 | Cc1cccc2nc3c(nc12)-c1ccccc1C3=Nc1ccccc1 | -0.09 | -0.5
101 | Cc1nn(Cc2ccccc2Cl)c(C)c1C(=O)N(CC1CCCO1)C1CCS(=O)(=O)C1 (centres undefined) | nt | 0.3
102 | N#Cc1ccc(C=Nc2ccc(C(N)=O)cc2)cc1 | nt | -0.85
103 | CS(=O)(=O)c1ccc(C(O)CCN2CCCCC2)cc1 (centres undefined) | -0.3 | nt
104 | N#CC1=C(Nc2ccc(Br)cc2)CCC1 | 0.36 | 0.1

Looked up by structure from the list above, 3 records:
entry | mol | Ba CapD inh | AID504770
104 | N#CC1=C(Nc2ccc(Br)cc2)CCC1 | 0.36 | 0.1
102 | N#Cc1ccc(C=Nc2ccc(C(N)=O)cc2)cc1 | nt | -0.85
100 | Cc1cccc2nc3c(nc12)-c1ccccc1C3=Nc1ccccc1 | -0.09 | -0.5

Continuation:
entry | mol | Ba CapD inh | AID504770
105 | CCc1cccc(NC(=O)C2CCN(c3nnc(-n4cccc4)s3)CC2)c1 | -1.1 | 0.75
106 | O=C(OCC(=O)N1c2ccccc2Sc2ccccc21)C1CC(=O)N(Cc2ccco2)C1 (centres undefined) | nt | 1.4
107 | CC(=O)O[C@]1(C(C)=O)CCC2C3C=C(Cl)C4=CC(=O)CC[C@]4(C)C3CC[C@@]21C (some centres undefined) | nt | -0.05
108 | Cc1cccn2c(=O)c(/C=C3\SC(=S)N(C(C)C)C3=O)c(N3CC(C)OC(C)C3)nc12 (centres undefined) | -0.17 | -1.1
109 | CCc1ccc(NC(=O)CCC2=NS(=O)(=O)c3ccccc3N2)cc1 | 0.68 | -0.5
110 | O=C1CSC(c2cccc(Cl)c2Cl)N1c1ccccn1 (centres undefined) | 1 | nt
111 | O=c1c(=N\O)/c(=N/O)c(=O)c2ccccc12 | -1.7 | -5.3*
112 | Cc1oc(-c2ccc(Cl)cc2)nc1CN1CCC(C(=O)NC(C)CCc2ccccc2)CC1 (centres undefined) | -0.59 | -1.1
113 | Cc1cccnc1NCC(O)COc1ccccc1 (centres undefined) | nt | -0.35
